Rango release inh: inhibitors of RanGTP-induced Rango-importin beta complex dissociation; O95149+P62826; Biochemical FRET Rango-importin beta, RanGTP-induced dissociation; Potency, µM (titrated, usually from 46.1 µM), for the others: at the top dose activity change, negative = inhibition; 340,000 compounds, 0.071% hits; active means falling FRET ratio curve, often poorly fitted, with flat reads before Ran was added; inconclusive means other falling curves, or compound fluorescence or quenching; inactive means flat or rising ratio curve;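 further: potency means the concentration at half of the fitted maximal effect; % of control where 0% means no effect; nearly all actives have a fitted effect of over 45% in size; -100% = wells without RanGTP and RCC1; the record marks most hits as doubtful in a second field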
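Two FRET readings bracket the reaction: one 5 min after compound meets Rango–importin beta, another 45 min after RanGTP-RCC1 (0.6 uM Ran, 0.2 uM RCC1, 2 mM GTP) is added. Only the second defines inhibition.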
GLA inh pH 4.5: blocks human alpha-galactosidase A at pH 4.5 | AID 1467 | purified enzyme, 4-MU-alpha-Gal fluorescence, pH 4.5 | P06280 | activity change, negative = inhibition, % at 105 µM | 230,000 tested, under 10 active; inconclusive = small, poorly fitted or top-dose-only inhibition, or a rising curve; inactive = flat fitted curve, though single readings scatter; no compound was filed as active;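 further: 0% = full activity with enzyme and -100% = basal without enzyme; dose as in the result columns while the protocol names 77 µM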
miR-21 FLuc: miR-21 reporter, rising signal; HeLa miR-21 FLuc reporter, luciferase, 48 h; Potency, µM (highest dose often 38.3 µM), without a hit: at the top dose reporter change, positive = more light; 340,000 tested, under 10 active; AID 2288; active = well fitted rising curve with a large enough effect; inconclusive = small, poorly fitted or top-dose-only effect; inactive = no such curve, though single readings can be large or run the other way;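 further: % of control where 0% means no effect; miR-21 action dims this reporter so a rising signal means less miR-21 action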
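Using DMEM plus 10% FBS, HeLa miR-21-FLuc cells are incubated with test compounds (final up to about 40uM) for 48 hours; firefly luciferase signal is then imaged following reagent-mediated lysis.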
Rango complex inh: prevents formation of the Rango-importin beta complex; Potency, µM (top dose mostly 92.2 µM), for the others: at the highest dose inhibition of complex formation; AID 540263; Rango CFP/YFP FRET sensor + importin beta, 45 min; 340,000 compounds, 0.031% hits; Q14974; active = rising FRET ratio curve, often small or poorly fitted; inconclusive = mostly compound fluorescence or quenching in the first reads; inactive = flat curves in all reads;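 further: potency means the concentration at half of the fitted maximal effect; 0% = DMSO wells and 100% = buffer wells lacking importin beta; nearly all actives have a fitted effect of over 15% in size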
Target sequence (Q14974 whole entry, looked up): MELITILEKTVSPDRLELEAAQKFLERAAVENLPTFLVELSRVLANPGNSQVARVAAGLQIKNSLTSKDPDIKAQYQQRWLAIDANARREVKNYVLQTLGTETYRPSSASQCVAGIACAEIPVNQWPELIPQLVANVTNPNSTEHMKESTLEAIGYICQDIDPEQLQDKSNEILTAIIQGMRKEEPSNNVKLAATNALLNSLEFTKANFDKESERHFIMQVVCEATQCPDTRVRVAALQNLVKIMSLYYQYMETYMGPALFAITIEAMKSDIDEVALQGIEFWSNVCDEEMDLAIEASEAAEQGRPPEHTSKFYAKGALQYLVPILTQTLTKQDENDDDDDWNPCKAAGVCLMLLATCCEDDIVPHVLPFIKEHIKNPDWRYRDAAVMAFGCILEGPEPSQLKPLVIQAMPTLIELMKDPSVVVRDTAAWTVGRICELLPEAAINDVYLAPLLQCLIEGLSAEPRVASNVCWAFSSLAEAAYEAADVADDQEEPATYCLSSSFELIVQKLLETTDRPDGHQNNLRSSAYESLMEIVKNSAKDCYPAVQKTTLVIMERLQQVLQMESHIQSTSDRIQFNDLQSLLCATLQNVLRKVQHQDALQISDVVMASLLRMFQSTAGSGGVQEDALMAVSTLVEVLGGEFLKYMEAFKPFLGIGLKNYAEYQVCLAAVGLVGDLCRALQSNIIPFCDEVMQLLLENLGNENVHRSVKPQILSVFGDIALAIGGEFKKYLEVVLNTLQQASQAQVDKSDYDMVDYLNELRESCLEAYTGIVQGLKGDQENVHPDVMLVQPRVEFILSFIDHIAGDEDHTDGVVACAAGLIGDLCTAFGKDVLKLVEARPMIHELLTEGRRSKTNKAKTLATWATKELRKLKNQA
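FRET biosensor Rango (snurportin 1 IBB between N-terminal EYFP and C-terminal Cerulean), 50 nM in PBS/1 mM DTT/0.02% Tween-20/0.1% BSA, preincubated 5 min RT with compound; 0.125 microM importin beta added, 45 min RT, CFP/YFP FRET ratio read.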
Active calls of the source: *; ? = inconclusive; nt = not tested or not shown; [ ] = remark or other dose. Some of the compounds tested; the hit share may differ from the screen's.

Fields: Rango complex inh	miR-21 FLuc	Rango release inh	GLA inh pH 4.5
CCCC(=O)Nc1ccc(NCc2ccc(C)s2)cc1
→ -0.2%	-28%	30%	nt
C=CCNCC(=O)Nc1ccccc1SCC(=O)Nc1ccsc1C(=O)OC
→ -4.0%	-8%	10%	-8
COc1ccccc1Nc1nc(NCCCCO)nc(N2CCCC2)n1
→ 3.3%	nt	-4%	nt
COc1cc(C(c2c(C)[nH][nH]c2=O)c2c(C)[nH][nH]c2=O)cc([N+](=O)[O-])c1O
→ -3.5%	1%	14%	2[21.1 µM]
O=S(=O)(Nc1nccs1)c1ccc(NS(=O)(=O)c2c(F)cc(F)c(Cl)c2F)cc1
→ 1.2%	nt	10%	nt
Cc1ccc(NC(=O)CSc2ccc(-c3ccc(-n4cccn4)cc3)nn2)c(C)c1
→ -0.6%	nt	-15%	nt
O=C(Nc1ccc(F)cc1)OCCOc1ccc(Br)cc1
→ ?	-6%	7%	6
COc1ccc(N(C(=O)COc2ccccc2)C2C=CS(=O)(=O)C2)cc1 (stereo unspecified)
→ -5.8%	-12%	10%	1
COc1ccccc1N(CC(=O)N1CCc2ccccc2C1)S(C)(=O)=O
→ -3.1%	0%	-14%	1
COc1ccc(N=c2oc3cc(O)ccc3cc2C(=O)Nc2ccccn2)cc1OC
→ ?	-31%	?	-6
Cc1ccc(C2=N/C(=C\N3CCCCC3)C(=O)O2)cc1
→ 4.9%	-60%	-10%	0
O=C1C=C(c2cc3ccccc3s2)CCC1
→ -0.7%	nt	20%	nt
COC(=O)CCC(=O)NC(=S)Nc1ccc(S(=O)(=O)Nc2cc(OC)nc(OC)n2)cc1
→ -2.6%	-11%	7%	-16
CC(=O)NC(C)c1ccc(Cl)c(Cl)c1 (stereo unspecified)
→ -6.6%	-8%	-4%	1
CCc1ccc(S(=O)(=O)Nc2ccc(-c3ccc4nncn4n3)cc2)s1
→ 1.8%	nt	-6%	nt
CCOc1cc(/C=N/NC(=O)OC)ccc1OCCSc1ccc(Cl)cc1
→ 4.3%	7%	-1%	0
CCC(=O)N1CCC(NC(=O)Nc2ccc(OC(F)(F)F)cc2)CC1
→ 2.9%	nt	-13%	nt
COC(=O)c1sc2cc(C(F)(F)F)cnc2c1-c1ccccn1
→ 5.1%	0%	7%	4
O=C1CCC(C(=O)OCC(=O)Nc2ccc(Cl)cc2C(F)(F)F)=NN1
→ 4.6%	nt	22%	nt
COc1cccc(OCC(=O)NNC(=O)CCc2ccccc2)c1
→ 0.0%	5%	1%	10
COc1ccc(/C=C/C=C2\N=C(SC)SC2=O)cc1
→ ?	-10%	?	-13
CCCCc1c(O)nc(SC2CC(=O)N(c3ccc(C(=O)OCC)cc3)C2=O)[nH]c1=O (stereo unspecified)
→ 0.2%	5%	-17%	nt
C/C(Nc1ccc(C)cc1)=C(/C#N)C(N)=O
→ ?	-17%	-11%	6
Cc1ccc(C)c(N2CCN(C(=O)c3ccc(CSc4nc5ccncc5[nH]4)cc3)CC2)c1
→ 6.8%	23%	-21%	3
Cc1cc(NC(=O)CSc2nc(N)c(NC(=O)c3ccccc3F)c(=O)[nH]2)no1
→ -0.3%	2%	11%	nt
COc1ccc(/C=N/Nc2nnc(Cc3ccccc3)c(=O)[nH]2)cc1
→ -0.5%	-3%	-5%	-2
CC(=O)C1=C(O)C(=O)N(Cc2cccnc2)C1c1ccc(O)cc1 (stereo unspecified)
→ 3.6%	0%	14%	-1
O=C(Nc1ccc(Br)c2cccnc12)c1ccc(Cn2cc([N+](=O)[O-])cn2)o1
→ -0.4%	-1%	10%	-4
Nc1nn(-c2ccccc2)c(N)c1N=Nc1ccccc1F
→ 2.1%	-7%	-8%	-11
CC1CCCCN1C(=O)CSc1nc2ccsc2c(=O)n1Cc1ccccn1 (stereo unspecified)
→ ?	-33%	-4%	-4

Rewritten as labelled records: entries from further up.
CCOc1cc(/C=N/NC(=O)OC)ccc1OCCSc1ccc(Cl)cc1
  Rango complex inh: 4.3%
  miR-21 FLuc: 7%
  Rango release inh: -1%
  GLA inh pH 4.5: 0

Cc1ccc(C)c(N2CCN(C(=O)c3ccc(CSc4nc5ccncc5[nH]4)cc3)CC2)c1
  Rango complex inh: 6.8%
  miR-21 FLuc: 23%
  Rango release inh: -21%
  GLA inh pH 4.5: 3

COc1ccc(/C=C/C=C2\N=C(SC)SC2=O)cc1
  Rango complex inh: ?
  miR-21 FLuc: -10%
  Rango release inh: ?
  GLA inh pH 4.5: -13

CC1CCCCN1C(=O)CSc1nc2ccsc2c(=O)n1Cc1ccccn1 (stereo unspecified)
  Rango complex inh: ?
  miR-21 FLuc: -33%
  Rango release inh: -4%
  GLA inh pH 4.5: -4

The listing continues:
Fields: Rango complex inh	miR-21 FLuc	Rango release inh	GLA inh pH 4.5
Nc1ccc(C(=O)N2CCN(S(=O)(=O)c3ccc(Cl)cc3)CC2)cc1[N+](=O)[O-]
→ 0.6%	nt	0%	nt
CCCc1cc2c(cc1NS(=O)(=O)c1ccc(CCNC(C)=O)cc1)OCO2
→ -2.9%	-1%	-10%	2
Cc1nc2ccccc2c2oc(C(=O)NCCCN3CC(C)CC(C)C3)cc12 (stereo unspecified)
→ -0.2%	5%	-1%	nt
CN(N)C(=S)Nc1ccc(Cl)cc1
→ -1.3%	-1%	0%	2
Cc1cc(O)c2c(-c3ccccc3)cc(=O)oc2c1
→ 5.7%	-2%	-3%	-2
CC[C@H](C)[C@@H](C(=O)N1CCNCC1)n1cc([C@@H](N)CO)nn1
→ 1.4%	0%	-6%	-2
C=CCNC(=S)NNC(=O)CC12CC3CC(CC(C3)C1)C2
→ -0.3%	-2%	-9%	1
O=C(NCCOc1ccccc1-c1ccccc1)c1ccco1
→ 2.5%	-9%	12%	0
Cc1cc(CN(C)C(=O)CC2C(=O)NCCN2Cc2ccc(F)c(F)c2)on1 (stereo unspecified)
→ 3.2%	0%	-1%	-4
Cc1ccc2nc(SCC(=O)Nc3cc(C)on3)nc(=O)n2c1
→ -1.0%	nt	-1%	nt
Nc1ccc(C(=O)N/N=C\c2ccc(OC(=O)c3ccccc3Cl)cc2)cc1
→ 0.6%	-20%	7%	nt
Cc1ccc(-n2c(SCC(N)=O)nnc2-c2ccc(S(=O)(=O)N3CCCCC3)cc2)c(C)c1
→ 0.7%	2%	19%	3
O=C(Cc1ccsc1)N1CCN(S(=O)(=O)c2ccccc2F)CC1
→ -0.1%	nt	-2%	nt
O=C(CN1CCC(NC(=O)c2ccc(F)cc2)CC1)NCc1ccccc1F
→ 0.2%	-4%	-2%	-4
COc1ccc(CCN(C)C(=O)c2ccc3c(=O)n4c(nc3c2)CCCCC4)cc1OC
→ 1.9%	nt	1%	nt

Rewritten as tab-separated lines: part of the list above
SMILES	Rango complex inh	miR-21 FLuc	Rango release inh	GLA inh pH 4.5
Cc1ccc2nc(SCC(=O)Nc3cc(C)on3)nc(=O)n2c1	-1.0%	nt	-1%	nt
C=CCNCC(=O)Nc1ccccc1SCC(=O)Nc1ccsc1C(=O)OC	-4.0%	-8%	10%	-8

(continued)
Fields: Rango complex inh	miR-21 FLuc	Rango release inh	GLA inh pH 4.5
Cc1cc(C)c(C(=O)CC2(O)C(=O)Nc3ccccc32)cc1C (stereo unspecified)
→ -3.2%	-12%	14%	3
CC1CCC(NS(=O)(=O)c2ccc(N3CCCC3=O)cc2)CC1 (stereo unspecified)
→ -3.6%	10%	1%	nt
O=C(CSc1ccc(Cl)cc1)Nc1ccccc1N1CCN(C(=O)c2ccccc2)CC1
→ 1.3%	-3%	0%	3
CCOC(=O)c1c(NC(=O)CSc2nnc(C)s2)sc2c1CCCCC2
→ 3.5%	-6%	-1%	-3
Cc1cc(NCCCN)nc(-c2ccccc2O)n1
→ 5.6%	-39%	-9%	-4
NS(=O)(=O)c1cccc(NC(=O)c2ccc(S(=O)(=O)N3CCCCCC3)cc2)c1
→ -1.2%	nt	4%	nt
Cc1nc(NC(=O)c2ccc(Br)o2)ccc1Br
→ -0.6%	-40%	6%	nt
